# CBX7 AlphaScr = inhibitors of human CBX7 binding to H3K27me3 peptide. AID 1224903. 1.1% of 66,000 active. AlphaScreen His6-CBX7 / biotin-H3K27me3 peptide binding; active compounds read low. O95931. normalised signal (fraction of DMSO) (test concentration not listed); in the data active = normalised signal below about 0.5;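 note: 100 nL library stock added to about 20 µL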
# Target sequence (O95931 whole entry, looked up): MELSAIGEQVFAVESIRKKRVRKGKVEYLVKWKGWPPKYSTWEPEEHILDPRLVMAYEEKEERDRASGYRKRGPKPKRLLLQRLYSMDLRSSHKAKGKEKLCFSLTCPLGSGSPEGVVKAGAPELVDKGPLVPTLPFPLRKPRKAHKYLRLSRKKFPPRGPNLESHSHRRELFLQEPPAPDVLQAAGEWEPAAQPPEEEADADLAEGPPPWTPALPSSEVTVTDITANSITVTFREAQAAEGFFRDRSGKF
# CBX7 AlphaScr z-score = also measured in CBX7 AlphaScr; calls as there; z-score; measured here: z-score of CBX7 signal; some inactives read as strong as hits; reference of the scale not given here;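 same signal on another scale; lower means less binding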
# Numbers without * were called inactive; & = joins results of further samples. Some of the compounds tested; the hit share may differ from the screen's.
compound	CBX7 AlphaScr	CBX7 AlphaScr z-score
Cc1nc2c(-c3ccccc3)c(C)nn2c(C)c1CCC(=O)N1CCN(c2ccccc2)CC1	1.1	1.1
COc1cccc(-n2ccnc2SCC(=O)Nc2ccc(C)c(Cl)c2)c1	0.91	-0.12
CC(C)(CO)NCc1cc(Br)ccc1OCc1ccccc1	1	0.3
Clc1ccc(-c2nc(-c3ccccn3)no2)cc1Cl	0.98	-0.024
COc1ccc(CNC(=O)C2CCN(Cc3nc(-c4ccc(OC)cc4)oc3C)CC2)cc1	1.1	1.7
O=C(CN1C(=O)COc2ccc(S(=O)(=O)N3CCOCC3)cc21)NCc1ccc2c(c1)OCO2	1	0.44
Cc1cc2nc3s/c(=C/c4ccncc4)c(=O)n3c2cc1C	1.1	2.4
Cc1ccc(NC(=O)c2cccc3c2C(=O)N(C2CCCCC2)C3)c(C)c1	1.1	1.7
O=C(Nc1c(C(=O)Nc2ccc(Cl)cc2)cnn1-c1ccccc1)c1cccc(F)c1	0.93	-0.75
CCOC(=O)c1ccc(-n2nnnc2C(c2ccccc2Cl)N2CCOCC2)cc1 (configuration not stated)	0.96	-0.64
COc1ccc(Cl)cc1Nc1nc(-c2c(C)nc3sccn23)cs1	0.97	-0.79
O=c1cc(NCc2cccs2)[nH]c(=O)n1-c1ccc(Br)cc1	1.2	2.5
COc1ccc2oc(C(=O)c3ccccc3)c(NC(=O)CN3CCN(C)CC3)c2c1	0.81	-3.8
Cc1nc2c(C(=O)NCC3CCCO3)c[nH]n2c(=O)c1Cc1ccccc1Cl (configuration not stated)	1.1	1.7
Cc1ccc(-c2noc(CN(C(=O)c3cccc(Cl)c3)C(C)C)n2)cc1	1	0.34
O=C1c2ccccc2C(=O)N1c1cccc(-c2csc(Nc3cc(Cl)cc(Cl)c3)n2)c1	1&1	0.13&1.1
COc1cc2c(cc1OC)C1C(C(=O)NCCN(C)C)c3ccccc3C(=O)N1CC2 (configuration not stated)	1.1	1.5
COC(=O)c1ccc(C(=O)OC)c(NC(=O)c2cc(-c3ccccc3)nc3ccccc23)c1	1	1.2
CCOC(=O)c1cnc2ccccc2c1Nc1cccc(Cl)c1Cl	0.74	-1.6
CCCCOc1ccc(-c2nc3ccccc3c(C(=O)O)c2C)cc1	1	0.045
COc1cccc(-c2nn(C)c3sc(C(=O)N4CCC(C)CC4)cc23)c1	1.1	1.8
Cc1noc(C)c1S(=O)(=O)NCc1ccc(F)cc1	1	0.86
Cc1ccc(OCCCCCc2c(C)n[nH]c2C)cc1	0.93	-0.089
COc1cccc(N2C(=O)c3ccc(C(=O)Nc4ccccc4O)cc3C2=O)c1	0.97	-0.67
COc1cccc(NC(=O)C2CCC(CNS(=O)(=O)c3cccc4cccnc34)CC2)c1 (configuration not stated)	1.1	1.5
O=C(CSc1nc(-c2ccccc2)[nH]c1-c1ccccc1)Nc1nccs1	0.88	-2.1
COc1ccc2nc(N3CCC(C(=O)NC(C)CCc4ccccc4)CC3)sc2c1 (configuration not stated)	0.92	-1.4
COc1ccc(CN2CCN(Cc3ccc(Cl)cc3)CC2)c(OC)c1OC	1	0.42
CC1CCCCC1NC(=O)CN1C(=O)COc2ccccc21 (configuration not stated)	1.1	1.4
Cc1ccc2c(c1)-c1c(cnn1CC(=O)N1CCN(c3cccc(C(F)(F)F)c3)CC1)CO2	1	0.85
COc1ccc(OCC(=O)Nc2ccc(-c3nc4cc(Cl)ccc4o3)cc2)cc1	1	0.11
O=C(NCc1ccccc1Cl)c1ccc2c(c1)NC(=O)C1CCCN21 (configuration not stated)	0.98	-0.069
O=C(c1ccc(Cn2c(=O)[nH]c3ccccc3c2=O)cc1)N1CCN(c2ccc(F)cc2)CC1	0.65	-0.99
O=C(NCc1ccc2c(c1)OCO2)c1ccc2c(c1)N(Cc1ccc(Cl)cc1)CCS2	1	0.042
COc1ccc(-c2[nH]ncc2Oc2ccc(C(=O)O)cc2)c(O)c1	1	0.31
Clc1ccc(OCc2nc(-c3ccccn3)no2)c(Br)c1	1.1	0.64

# 7 structures from above, ordered by formula weight, ascending.
compound	CBX7 AlphaScr	CBX7 AlphaScr z-score
O=C(NCc1ccccc1Cl)c1ccc2c(c1)NC(=O)C1CCCN21 (configuration not stated)	0.98	-0.069
Clc1ccc(OCc2nc(-c3ccccn3)no2)c(Br)c1	1.1	0.64
COc1ccc(CN2CCN(Cc3ccc(Cl)cc3)CC2)c(OC)c1OC	1	0.42
COc1ccc2nc(N3CCC(C(=O)NC(C)CCc4ccccc4)CC3)sc2c1 (configuration not stated)	0.92	-1.4
COc1cccc(NC(=O)C2CCC(CNS(=O)(=O)c3cccc4cccnc34)CC2)c1 (configuration not stated)	1.1	1.5
Cc1ccc2c(c1)-c1c(cnn1CC(=O)N1CCN(c3cccc(C(F)(F)F)c3)CC1)CO2	1	0.85
O=C(c1ccc(Cn2c(=O)[nH]c3ccccc3c2=O)cc1)N1CCN(c2ccc(F)cc2)CC1	0.65	-0.99

# New compounds follow:
compound	CBX7 AlphaScr	CBX7 AlphaScr z-score
COc1ccc2oc(-c3ccccc3)c(C(=O)N3CCCCC3)c2c1	1	0.0031
CCCCC(=O)Nc1ccccc1-c1nc2ccccc2[nH]c1=O	1.1	1.6
COc1ccc(-c2noc(CCC(=O)N(C)c3cc(Cl)c(OC)cc3OC)n2)cc1	0.96	-0.91
CCC(=O)N1CCc2cc(S(=O)(=O)Nc3ccc(OC(F)(F)F)cc3)ccc21	1.2	2.2
Cc1ccc2c(c1)C(c1ccc(F)cc1)N(C(=O)C1CC1)CC(=O)N2 (configuration not stated)	0.91	-1.6
O=C(NCc1nc2ccccc2n1Cc1c(F)cccc1Cl)c1ccccc1	0.83	-2
O=C(NCc1ccc(F)cc1)c1cc(-c2cccc(Cl)c2)on1	1	0.8
CCOC(=O)c1c(NC(=O)COc2cccc(C(F)(F)F)c2)sc2c1CCCCC2	1	0.77
Cc1oc(-c2ccccc2F)nc1C(=O)NCc1cccnc1	0.97	-1.1
CC(=O)N1CCc2ccc(S(=O)(=O)N3CCOCC3)cc21	1	0.39
CCOc1ccccc1-n1cnc2cc(C(=O)O)ccc21	0.92	-1.2
O=C(COc1ccc(Cl)cc1)Nc1c2c(nn1-c1cccc(Cl)c1)CSC2	1.1	1.9
Cc1ccc2nc(SCc3ccc(Cl)cc3)[nH]c2c1	1.1	3.3
O=C(CN1CCN(Cc2ccc(Cl)cc2)C1=O)NCCC1=CCCCC1	1	0.96
COc1ccccc1Nc1c2c(nc3cc(Cl)ccc13)CCCC2	0.94	-0.85
Oc1ccc(Nc2nc(-c3ccccn3)cs2)cc1	0.0014*	-20*
CCCCNC(=O)CC(C(=O)N1CCc2ccccc21)n1ccnc1 (configuration not stated)	1	0.1
CCn1ccnc1C(O)(c1ccccc1)c1nccn1CC	0.95	-0.048
CCOC(=O)CNC(c1ccccc1)c1cc(Br)ccc1NC(C)=O (configuration not stated)	0.98	-0.57
CC(C)C(C(=O)Nc1nccs1)N1C(=O)c2ccccc2C1=O (configuration not stated)	1.1	0.25
CC(NC(=O)CSCc1cnn(-c2ccccc2)c1-n1cccc1)c1ccccc1 (configuration not stated)	1	1.5
CCOCCCNC(=O)c1nc(-c2cccc(C)c2)oc1C	1.1	0.59
Cc1ccc(-n2c(=O)cc(N3CCN(c4ccccc4)CC3)[nH]c2=O)cc1	0.99	-0.11
CC(=O)Nc1ccc(-c2nc3c(Cl)cccc3[nH]2)cc1	1.1	2.2
COc1ccc(CCN2CC(C(=O)NC3CCCCC3C)CC2=O)cc1OC (configuration not stated)	0.96	-2.3
COc1cccc(CNC(=O)C(NS(=O)(=O)c2ccc3c(c2)CCN3C(C)=O)C(C)C)c1 (configuration not stated)	1.1	3
COc1ccc(Oc2ccc3[nH]c4c(c3c2)CCCC4=O)cc1	0.82	-1.5
Cc1cc(=O)n2nc(N3CCCC(C(=O)NCCC(C)C)C3)sc2n1 (configuration not stated)	1.1	0.89
CCCCOc1cccc(NC(=O)CCSc2nccn2C)c1	0.95	-1.8
CCCCN(CCCNC(=O)Cn1nc(-c2ccc(C)cc2)ccc1=O)c1ccccc1	0.66	-12
CC1CCCC(C)N1CCCNC(=O)C1c2ccccc2C(=O)N1CCc1ccc(Cl)cc1 (configuration not stated)	1.1	2.8
Cc1cccc(OCc2nc(-c3ccccn3)no2)c1	1.1	0.12
COc1ccc(NC(=O)CSc2nnc(Cc3cc(=O)[nH]c(=O)[nH]3)n2-c2ccc(OC)cc2)cc1	1	0.12
CCOc1cc2c(cc1OCC)C1C(C(=O)Nc3ccc(C)c(F)c3)c3ccccc3C(=O)N1CC2 (configuration not stated)	0.92	-0.63
COc1ccccc1-c1nc(SCc2ccccn2)n[nH]1	1	-0.0031
Nc1nonc1-c1noc(CCCOc2ccc(Cl)cc2Cl)n1	1	0.82
Cc1cccc(C(=O)Nc2nc(-c3ccccc3)c(C)s2)c1	1	-0.066
CC(=O)c1c(C)n(-c2ccccc2)c2ccc(OCC(O)CN3CCCCC3)cc12 (configuration not stated)	0.93	-0.14
Cc1cccc(N2C(=O)CC(N3CCN(c4ccc(F)cc4)CC3)C2=O)c1 (configuration not stated)	1.1	1.8
CC(NC(=O)c1ccc(F)cc1)C(c1cccs1)N1CCN(c2ccccc2F)CC1 (configuration not stated)	1	0.15
O=C(O)c1cc(-c2ccc(-c3ccc(Cl)cc3)o2)nc2ccccc12	0.99	-0.11
Cc1cccc2nc(CSc3nncn3-c3ccccc3)c(Br)n12	0.94	-1
CC1CCN(S(=O)(=O)c2ccc3ncn(CC(=O)NC4CCCCCC4)c(=O)c3c2)CC1	1.2	1.5
Cc1nc2c(C(=O)NC3CCCC3)cnn2c(C)c1Cc1c(F)cccc1Cl	0.98	-0.57
CC(C)C(NS(=O)(=O)c1cccs1)C(=O)Nc1ccc2c(c1)OCCO2 (configuration not stated)	0.99	-0.099
CCOC(=O)C1CCCc2c1[nH]c1c(C(=O)NCc3ccc(OC)cc3)cccc21 (configuration not stated)	0.61	-10
Cc1ccccc1NS(=O)(=O)c1cccc(-c2nnc(-c3ccccc3)o2)c1	1.1	2.7
O=C(CN1C(=O)c2ccccc2S1(=O)=O)Nc1ccc(S(=O)(=O)N2CCCCCC2)cc1	1	0.39

# 3 compounds from above, ordered by their value in CBX7 AlphaScr z-score, highest first:
molecule	CBX7 AlphaScr z-score
CC1CCN(S(=O)(=O)c2ccc3ncn(CC(=O)NC4CCCCCC4)c(=O)c3c2)CC1	1.5
O=C(O)c1cc(-c2ccc(-c3ccc(Cl)cc3)o2)nc2ccccc12	-0.11
CCOC(=O)C1CCCc2c1[nH]c1c(C(=O)NCc3ccc(OC)cc3)cccc21 (configuration not stated)	-10

# Following part.
compound	CBX7 AlphaScr	CBX7 AlphaScr z-score
CCCCNC(=O)CNC(=O)c1nn(-c2ccc(OC)c(OC)c2)c(=O)c2ccccc12	1.1	0.99
O=C(CN1C(=O)COc2ccc(Cl)cc21)NCc1ccc(F)cc1	0.42*	-1.2*
O=c1[nH]c2ccc(NCc3ccc(Cl)cc3Cl)cc2[nH]1	0.86	-0.87
CCCCN(C)Cc1c(C)[nH]c2ccc(OCC)cc2c1=O	0.98	-0.7
COc1cccc(CNC(=O)CCn2nc(-c3ccccc3)ccc2=O)c1	0.94	-1.8
COc1ccc(NC(=O)CN2C(=O)c3ccccc3S2(=O)=O)cc1	1.2	2.1
O=C(O)c1ccc(N2C(=O)CC(Cc3ccccc3)C2=O)cc1 (configuration not stated)	1.1	0.88
c1ccc(CC2CCN(c3ccc4nncn4n3)CC2)cc1	0.97	-0.79
CCn1cc(C(=O)NCc2ccc(OC)cc2)c(=O)c2ccc(C)nc21	1	0.28
COc1ccc(N2CC(C(=O)N3CCN(C(c4ccccc4)c4ccccc4)CC3)CC2=O)cc1 (configuration not stated)	0.95	-1.8
Cc1nc2c(-c3ccccc3)c(C)nn2c(C)c1CCC(=O)O	1	0.42
Cc1ccccc1-n1c(=O)cc(N2CCC3(CC2)OCCO3)[nH]c1=O	1.1	2.2
Cc1cccc(NC(=O)C(Cc2ccccc2)NS(=O)(=O)c2ccc(Br)s2)n1 (configuration not stated)	0.77	-0.91
O=C(NCCc1ccc(Cl)cc1)c1cc(-c2cccnc2)nc2ccccc12	1.4	3.3
OCCCc1nc2ccccc2n1CCCOc1ccc(Cl)cc1	1.1	1.8
Cc1cc(Cl)ccc1OCc1nc(-c2ccccn2)no1	1.1	2.2
O=C(NCC1COc2ccccc2O1)c1cnn2c(C(F)(F)F)cc(-c3cccs3)nc12 (configuration not stated)	0.96	-1.3
COc1ccc(OCC(=O)Nc2ccc(N3CCCCC3)cc2)cc1	0.93	-1.2
Cc1c(C(=O)NC2CCCCC2C)oc2ccc(S(=O)(=O)N3CCCCC3)cc12 (configuration not stated)	0.91	-2.1
O=C1CCc2cc(S(=O)(=O)NCCN3CCN(c4ccccc4)CC3)ccc2N1	0.99	-0.32
Cc1cc(N2CCOCC2)nc2ccc(NC(=O)c3ccccn3)cc12	1.1	0.77
Clc1ccc(Nc2nc(-c3ccncc3)nc3ccccc23)cc1	0.99	-0.25
Cc1ccc(NC(=O)C(C)N2C(=O)c3ccccc3C2=O)cc1C (configuration not stated)	1	1.8
CNC(=O)c1cc2c(n(-c3ccccc3)c1=O)CC(C)(C)CC2=O	1.1	0.32
O=C(Nc1ccc(OCc2ccccc2)cc1)C1(c2ccccc2)CCCC1	1.2	0.59
CCN(CC)CCn1c(=N)n(CC(O)c2ccco2)c2ccccc21 (configuration not stated)	0.83	-1.8
CCc1ccc2nc(N3CCC(C(=O)NC4CCCCC4C)CC3)sc2c1 (configuration not stated)	1.1	1.1
O=C(Nc1cccc(Cl)c1)c1cc(-c2cccs2)on1	0.9	-0.1
CCCCN(C)S(=O)(=O)c1ccc(C(=O)Nc2sc3c(c2C(N)=O)CCN(C)C3)cc1	1.1	1
CCOC(=O)c1cnc2cc(C(F)(F)F)ccc2c1N1CCCCCC1	1.2	2

# Bioassay records: PubChem, several laboratories
